Beta cell apopt: beta cell apoptosis inhibition. 300,000 tested, 0.8% active. INS-1E cytokine-induced death, ATP luminescence, 48 h; percent of positive-control rescue, neutral wells zero. protection from apoptosis, % (no concentration beside the values);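 active means all replicates at 75% or more, or half of them and the mean; inconclusive means half reach 75% but not the mean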;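 further: 0% = cytokine-treated negative control wells and 100% = positive control rescue; higher means more ATP so stronger rescue from cytokine killing; wells of about 40 µL received 100 nL stock; the first replicate is given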
rRNA inh HTS: inhibitors of bacterial rRNA selective over humanized ribosomes. E. coli WT GFP vs humanized-ribosome RFP mutants, fluorescence, 24 h; active compounds read low; DMSO median 0, no signal -100. GFP signal change (wild-type ribosome), % (test concentration not listed). 350,000 tested, 1.6% active. AID 720706;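 active means significant combined selectivity score with lowered wild-type GFP, culture density cut under 30%, mutant RFP and density less affected; inactive means any of these conditions unmet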; further: one replicate is shown; some compounds called inactive have numbers as strong as hits
MLL AF4-AF9 inh: MLL-AF4/AF9 protein interaction inhibition | P42568 | AlphaScreen, biotin-AF4 peptide binding to FLAG-AF9 | 350,000 tested, 0.47% active | inhibition, % at 10 µM | AID 651704;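 active means every replicate reaching a set inhibition limit, whatever the replicate mean, cut at about 25% in these data; inconclusive means mean inhibition reaches that limit but some replicates miss it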;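 further: 0% = plate neutral control median and 100% = total signal loss; the record names both 10 and 1 µM as test concentration; the first replicate is given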
Target sequence (P42568 whole entry, looked up): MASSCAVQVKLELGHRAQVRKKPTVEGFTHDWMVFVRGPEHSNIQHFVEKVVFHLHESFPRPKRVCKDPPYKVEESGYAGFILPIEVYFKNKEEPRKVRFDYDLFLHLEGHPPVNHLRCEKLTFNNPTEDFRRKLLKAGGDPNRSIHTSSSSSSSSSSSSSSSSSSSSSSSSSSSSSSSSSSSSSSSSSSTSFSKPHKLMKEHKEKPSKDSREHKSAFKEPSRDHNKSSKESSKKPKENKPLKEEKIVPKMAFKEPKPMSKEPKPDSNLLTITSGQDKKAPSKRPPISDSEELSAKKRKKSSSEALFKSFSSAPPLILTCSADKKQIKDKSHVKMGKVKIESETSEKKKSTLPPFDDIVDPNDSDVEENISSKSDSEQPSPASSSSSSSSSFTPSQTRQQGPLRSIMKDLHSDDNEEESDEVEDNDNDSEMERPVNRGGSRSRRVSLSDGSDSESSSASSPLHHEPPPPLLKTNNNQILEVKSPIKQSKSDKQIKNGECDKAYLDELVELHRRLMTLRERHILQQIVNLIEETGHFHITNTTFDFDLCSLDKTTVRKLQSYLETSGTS
FGF22 binding: shifts melting point of recombinant human FGF22. Q9HCT0. recombinant FGF22 thermal shift, SYPRO orange fluorescence; percent of sucrose octasulfate shift, DMSO zero. calls only at 9.99 µM. 340,000 tested, 1.5% active;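 active means melting point raised past a set limit in the mean and every replicate; inconclusive means no clear call; three in four hits are not shown here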
Target sequence (Q9HCT0 whole entry, looked up): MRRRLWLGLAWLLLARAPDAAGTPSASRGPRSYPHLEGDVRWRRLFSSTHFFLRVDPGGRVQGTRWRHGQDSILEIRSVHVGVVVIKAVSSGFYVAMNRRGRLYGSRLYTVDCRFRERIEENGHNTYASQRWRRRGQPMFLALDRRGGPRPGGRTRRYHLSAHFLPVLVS
T cruzi inh: T. cruzi replication inhibition | T. cruzi beta-gal in NIH3T3, luminescence, 90 h | inhibition, % (concentration not given with the values) | 300,000 tested, 1.4% active;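 active means mean inhibition across valid replicates above about 55%, limit read from the data; inconclusive means mean below that limit but half or more replicates reach it; inactive means mean below it, under half of replicates reach it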;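 further: signal also drops with host cell toxicity which is not excluded here; 0% = plate median of DMSO wells and 100% = zero luminescence signal; higher percent means less beta-gal luminescence so fewer parasites; stock transfer was 50 nL into about 50 µL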
ALR H2O2 inh: human ALR oxidase inhibition via reduced H2O2; P55789; purified ALR, DTT oxidation, H2O2 HRP-luminol luminescence; inhibition, % (no concentration beside the values); 290,000 tested, 3.8% active;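 active means mean and each replicate at 75% or more; inconclusive means only one of the two met; inactive means neither met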;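 further: stock transfer was 7.5 nL into about 7.5 µL; 0% = neutral wells and 100% = wells with inactivated enzyme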
Target sequence (P55789 whole entry, looked up): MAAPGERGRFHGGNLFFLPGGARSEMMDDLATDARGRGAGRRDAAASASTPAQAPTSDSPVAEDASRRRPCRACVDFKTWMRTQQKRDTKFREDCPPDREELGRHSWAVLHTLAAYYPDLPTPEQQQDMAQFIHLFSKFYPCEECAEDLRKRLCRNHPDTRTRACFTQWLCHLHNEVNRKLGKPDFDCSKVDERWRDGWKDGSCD
RanGTP-Imp inh: disruptors of Ran-importin-beta complex formation – biochemical, FRET, CFP-Ran, YFP-importin-beta, homogeneous, primary screen; 300,000 tested, 1.1% active; cell-free CFP-Ran/YFP-importin-beta FRET ratio; inhibition, % (concentration not given with the values);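 active means most replicates above 15%; inconclusive means exactly half above 15%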;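 further: 0% = DMSO wells and 100% = Ran loaded with GDP instead of GTP; wells of about 40 µL received 100 nL stock; the first replicate is given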
Calb FLC: C. albicans growth modulation with fluconazole. 300,000 tested, 0.57% active. C. albicans CaCi-2 (fluconazole-resistant clinical isolate) + fluconazole, Alamar Blue growth, 48 h. AID 1979. growth inhibition, % (test concentration not listed);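 active means most replicates above 75%; inconclusive means exactly half above 75%; inactive means most below 75%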;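 further: all wells also contain fluconazole at 8 µg/ml as a sub-toxic cotreatment; 0% = median of DMSO wells and 100% = median of geldanamycin control wells; wells of about 8 µL received 7.5 nL stock; the first replicate is given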
rRNA inh HTS OD600: further read-out of rRNA inh HTS, marked with its call; OD600 change, %; measured here: OD600 growth;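 optical density of the mix in the first replicate; 0 = DMSO median and -100 = no signal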
rRNA inh HTS RFP: further read-out of rRNA inh HTS, marked with its call; RFP signal change, %; measured here: RFP humanized mutant strains;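 first replicate; 0 = DMSO median and -100 = no signal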
Numbers without * were called inactive; i = inactive; ? = inconclusive; · = not tested or not shown; & = joins results of further samples. This is a subset; count on the stated rates, not on these rows.

Compound,Beta cell apopt,rRNA inh HTS,rRNA inh HTS OD600,rRNA inh HTS RFP,MLL AF4-AF9 inh,FGF22 binding,T cruzi inh,ALR H2O2 inh,RanGTP-Imp inh,Calb FLC
COc1cc2nc(CN(C)Cc3ccc(OC)c(OC)c3OC)[nH]c(=O)c2cc1OC,-0.6,0.0,-4.0,-2.6,1.1,i,-0.3,-7.1,3.8,-4.6
Cc1ccc(C)c(N(CC(=O)N2CCCC2)S(C)(=O)=O)c1,-1.8,6.9,7.6,-0.3,-0.5,i,-3.0,-5.3,-0.5,0.6
CCN(CC(=O)NCc1ccc(F)cc1)S(=O)(=O)c1ccc(Cl)s1,2.7,-6.7,-25.1,-2.9,-0.9,i,·,-5.0,·,·
CC(C)c1nc(SCC(=O)Nc2cccc(C(=O)O)c2)c2c3c(sc2n1)CCCC3,·,-42.2,-57.0,6.3,-4.7,i,0.9,98.2*,-3.0,2.5
CN(C/C(O)=C(\C#N)c1ccccc1)C1CCCCC1,2.3,·,·,·,·,·,6.0,12.4,4.8,-5.1
O=C(/C=C/c1ccc([N+](=O)[O-])cc1)c1cccnc1,1.2,4.1,3.6,-0.3,1.0,i,-6.0,2.0,-1.2,5.9
CCOc1ccc(NC(=O)NCCCCc2ccccc2)cc1,-6.6,-0.6,-5.8,5.8,-1.0,i,18.0,-5.8,-4.3,7.6
CCCCCn1c(SCc2ccncc2)nc2cc(C(=O)NCc3ccco3)ccc2c1=O,8.5,-8.1,-9.3,21.2,-7.1,i,27.8,6.2,7.1,0.7
CC1=C(C(=O)OCc2ccccc2)C(c2ccc([N+](=O)[O-])cc2)NC(=O)N1CCCCCC(=O)O (stereo not given),·,-17.3,-3.6,-1.3,-0.7,i,4.7,7.2,-1.0,4.3
C/C(N)=C(/C#N)C(=O)CSc1nc2ccccc2c(=O)n1-c1ccc(C)cc1,5.4,·,·,·,·,·,-20.8,·,-1.8,-0.2
COc1ccc2cc3cc(C(=O)NCc4ccco4)oc3nc2c1,4.5,·,·,·,·,·,13.7,·,5.4,0.7
O=C1NC(=O)C2(COC(c3ccccc3Cl)OC2)S1 (stereo not given),7.3,-6.9,-14.4,-2.4,-0.3,i,-13.2,7.4,-4.6,-8.1
CN1CCN(C(=O)C2=C[C@@H](C3CCCCC3)C[C@@H](OCCCCO)O2)CC1,-7.3,11.2,4.3,9.7,-3.0&-1.6,i,6.1,-9.5,5.1,9.9
Cc1ncsc1C(=O)N1N=C2/C(=C/c3ccccc3)CCCC2C1c1ccccc1 (stereo not given),6.4,·,·,·,·,·,21.5,-1.7,1.3,4.4
O=C(NCc1n[nH]c(=S)n1-c1ccccc1)c1ccco1,-4.8,·,·,·,·,·,-1.8,·,0.5,-11.6
Cc1cc(=O)oc(C)c1C(=O)Nc1cnc2ccccc2c1,-0.3,·,·,·,·,·,-11.6,-4.6,1.9,-23.4
C=CCOc1ccc(C(=O)NC2CCCCC2)cc1,5.3,·,·,·,·,·,-3.7,2.7,-0.1,-0.5
CCOC(=O)Cn1c2ccccc2c2nc(C)sc21,-5.5,5.0,1.8,-4.3,-2.1,i,-13.8,1.4,3.5,29.7
COc1ccc(F)cc1C(=O)C1CCCN(Cc2ccc3c(c2)OCCO3)C1 (stereo not given),-7.5,-3.4,-15.8,0.3,1.7,i,41.0,0.1,-1.9,2.1
CC(=O)Nc1cccc(OCc2cnc(Cl)s2)c1,-2.1,16.8,5.3,-9.9,-0.3,i,·,·,-3.0,-9.7
CCOc1ccccc1CN1CCN(Cc2csc(C(C)=O)c2)CC1CCO (stereo not given),-2.6,8.9,14.6,1.7,-0.4,i,17.0,19.3,1.8,-17.3
COc1ccc(-c2c(C)sc(NC(=O)c3ccnn3C)c2C#N)cc1,6.6,5.6,2.4,2.0,5.8,i,-16.0,22.7,25.4*,15.0
Cc1cc(C)n2nc(SC(C)C(=O)NCc3ccco3)nc2n1 (stereo not given),-3.7,·,·,·,·,·,-4.9,-2.6,-2.1,32.8
CC(NC(=O)c1ccc([N+](=O)[O-])o1)C12CC3CC(CC(C3)C1)C2 (stereo not given),·,-49.8,-63.2,-11.9,4.7,i,51.1,-36.9,-0.7,2.2
Cc1nnc(NC(=O)C(C)Sc2nnc(CCNC(=O)c3ccccc3F)n2C)s1 (stereo not given),2.3,11.1,11.4,3.4,-1.2,i,4.3,-1.1,-4.0,1.2
Cc1ccccc1OCC(=O)N1CCc2ccccc2C1,-4.9,-2.8,-5.2,-5.2,-1.3,i,13.5,-2.8,0.3,-14.2
COC(=O)c1sc(-c2ccccc2)cc1NC(=O)c1ccc(F)cc1,·,·,·,·,·,·,3.8,0.4,-1.9,0.0
COCCn1c(=S)[nH]c2ccc(N(C)C)cc2c1=O,8.0,·,·,·,·,·,-4.4,97.5*,?,13.8
O=C1CCc2cc(S(=O)(=O)Nc3ccccc3F)ccc2N1,-1.0,5.3,13.2,-1.6,1.2,i,·,-3.2,·,·
O=C(Cc1c(F)cccc1Cl)Nc1cccc(S(=O)(=O)NC2=NCCCCC2)c1,3.5,1.5,2.0,-1.0,-5.2,i,-2.5,·,0.7,-3.3

For convenience, some entries already given:
Compound,Beta cell apopt,rRNA inh HTS,rRNA inh HTS OD600,rRNA inh HTS RFP,MLL AF4-AF9 inh,FGF22 binding,T cruzi inh,ALR H2O2 inh,RanGTP-Imp inh,Calb FLC
CCOc1ccccc1CN1CCN(Cc2csc(C(C)=O)c2)CC1CCO (stereo not given),-2.6,8.9,14.6,1.7,-0.4,i,17.0,19.3,1.8,-17.3
COc1ccc(-c2c(C)sc(NC(=O)c3ccnn3C)c2C#N)cc1,6.6,5.6,2.4,2.0,5.8,i,-16.0,22.7,25.4*,15.0

More structures:
Compound,Beta cell apopt,rRNA inh HTS,rRNA inh HTS OD600,rRNA inh HTS RFP,MLL AF4-AF9 inh,FGF22 binding,T cruzi inh,ALR H2O2 inh,RanGTP-Imp inh,Calb FLC
Cc1nn(-c2ccccc2)c(Cl)c1/C=N/NC(=O)c1ccn[nH]1,-1.0,-2.5,-2.4,-0.7,3.4,i,0.2,2.9,1.5,-1.7
NC(=O)CSc1nnc(-c2ccc(S(=O)(=O)N3CCCCC3)cc2)n1-c1ccccc1,-0.7,20.9,13.4,3.3,-10.5,i,3.8,0.2,0.1,-20.3
CC(C)(C)NC(=O)C(c1ccncc1)N(Cc1ccc(F)cc1)C(=O)c1ccc(-c2ccccc2)[nH]1 (stereo not given),9.4,-21.3*,-14.1*,-0.5*,13.1,i,58.9*,0.3,-0.5,-21.4
CCOc1cc(C(=O)NCC(C)(C)CNC(=O)c2cc(OCC)c(OCC)c(OCC)c2)cc(OCC)c1OCC,14.7,7.1,14.4,0.4,-0.3,i,37.7,5.7,11.1,20.2
CCOc1ccc2[nH]c(=O)c(CN(CCO)C(=O)c3ccc(F)cc3)cc2c1,-11.7,·,·,·,·,·,-19.3,-7.4,-0.2,-1.1
C/C(=N\N(Cc1ccccc1)c1ccccc1)c1ccncc1,·,4.8,8.9,-1.2,-1.2,i,37.5,99.0*,5.9,-30.7
CCN(CC(=O)Nc1c(C(=O)OC)[nH]c2ccc(Cl)cc12)c1ccc2c(c1)OCO2,1.3,·,·,·,·,·,20.6,5.8,0.3,6.3
COc1ccc(Nc2cc(C(=O)NCCCN3CCOCC3)c3ccccc3n2)cc1,-2.8,0.6,7.5,-1.5,6.9,i,20.7,64.4,2.4,-3.3
COC(=O)c1ccccc1NC(=O)NCc1ccccc1,2.2,·,·,·,2.2,i,-38.0,-4.2,?,-1.5
CCOC(=O)c1cc(OCC(=O)NC(C)C(C)C)cc(C(=O)OCC)c1 (stereo not given),0.5,·,·,·,·,·,4.9,-6.9,-0.6,30.0
COc1ccc(S(=O)(=O)N2CCC(C(=O)NC3CCCCC3)CC2)cc1OC,-1.8,1.2,8.6,2.7,-11.2,i,-18.5,-5.7,-2.8,-2.2
COc1cc(OC)cc(-c2cc3ncccc3cn2)c1,-0.9,-10.1,-11.7,-1.1,0.5,i,·,12.1,·,·
CC(C(=O)Nc1sc2c(c1C#N)CCCCC2)N1C(=O)c2ccccc2C1=O (stereo not given),2.4,-1.1,-4.3,1.1,-45.1,i,3.3,·,1.1,7.7
COc1ccc2nc(N3CCN(C(=O)c4ccc([N+](=O)[O-])o4)CC3)sc2c1,35.1,-4.7,-0.1,-2.1,-1.0,i,60.2*,-183.4,?,13.6
COc1ccc(NC(=O)c2cc(C)no2)cc1,·,1.6,7.6,-6.9,2.5,i,-5.3,-1.7,?,-4.4
COC(=O)C(C)Sc1nnc2n(-c3cccc(C)c3)c(=O)c3c4c(sc3n12)CCCC4 (stereo not given),-3.0,9.5,8.6,1.8,-7.8,i,14.2,2.2,5.3,1.8
CCOC(=O)CCCCC(=O)c1[nH]c(=O)[nH]c1CSc1nc(C)cc(=O)[nH]1,-1.4,3.0,-1.3,3.3,-0.3,·,6.9,·,-12.1,11.1
COc1ccc(S(=O)(=O)N(C)CC(=O)N2CCCCCC2)cc1,-0.4,0.4,-6.0,-1.9,2.9,i,9.2,-4.6,1.4,1.4
COc1ccccc1OCC(=O)Nc1nc(C)c(C)s1,2.4,-2.6,-5.0,1.8,-5.0,i,-5.6,-5.6,-0.1,-3.4
CCNc1nc(NC(C)(C)C)nc(SCC(N)=O)n1,-9.1,4.9,4.3,0.1,0.7,i,-0.8,-3.2,3.9,-31.2
CSCCC(N=C(NS(=O)(=O)c1ccc(Br)cc1)c1ccccc1)C(=O)O (stereo not given),-1.1,21.0,16.0,0.1,-1.4,i,-9.4,-0.6,-2.7,16.9
CCOc1ccc(S(=O)(=O)NCCC(=O)Nc2cccc(C(=O)OC)c2)cc1,-5.0,-3.0,-10.0,9.4,-1.2,i,-4.3,·,-0.2,1.3

Assay outcomes as filed in PubChem BioAssay.
